Bioassay records deposited in PubChem BioAssay by Center for Chemical Genomics, University of Michigan.
HIV TAR-Tat – HIV-1 TAR-Tat binding disruption; HIV-1 TAR RNA, Tat peptide displacement FRET; hits give high values; z-score (concentration not given with the values); 100,000 compounds, 0.6% hits;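 further: score is relative to mean and SD of negative controls; some compounds called inactive have numbers as strong as hits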
CDC25B CDK2 inh – human CDC25B-CDK2/CyclinA binding inhibition | HTRF CDC25B-CDK2/CyclinA binding, anti-His/anti-Flag; hits give high values | z-score (no concentration beside the values) | 94,000 compounds, 0.72% hits;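 further: score is relative to mean and SD of negative controls; strong numbers were not always called active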
* hit, by the source's call.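 How the source made its calls: active means z-score from 3 up in half or more of its runs; inactive means the rest.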

What do the screens show for `O=C(Cn1c(NCCO)nc2ccccc21)c1ccc(Cl)cc1`?
HIV TAR-Tat: -1.6; CDC25B CDK2 inh: -0.61

How did NC(=O)c1cc(S(=O)(=O)NCCc2ccco2)cs1 do in these assays?
HIV TAR-Tat: 0.47

What do the screens show for `COC(=O)c1ccc(Cn2nnc3ccccc32)cc1`?
CDC25B CDK2 inh: -1.1

Results for CC(=O)c1c(C)oc2ccc(NS(=O)(=O)c3ccc(Cl)cc3)cc12 ?
CDC25B CDK2 inh: -0.62

What do the screens show for `O=C(NCCN1CCOCC1)c1ccc(N2CCOc3ccc(Cl)cc32)s1`?
HIV TAR-Tat: -0.48

Results for COCCn1nnc2cc(S(=O)(=O)N3CCCC3C(=O)O)ccc21 (stereo not drawn) ?
HIV TAR-Tat: 1.3; CDC25B CDK2 inh: -0.39

What do the screens show for `COc1ccc(Nc2ncnc3c2nc2n3CCCC2)cc1Cl`?
HIV TAR-Tat: 1.8

What do the screens show for `COCCCNC(=O)C1CCN(c2nnc(N3CCCCC3=O)s2)CC1`?
HIV TAR-Tat: 1.4

How did O=C(NC1CCCC1)c1cnc(N2CCOCC2)nc1 do in these assays?
HIV TAR-Tat: 0.34; CDC25B CDK2 inh: 0.22

What do the screens show for `Cc1c(C(=O)Nc2cc(F)ccc2F)oc2c1-c1[nH]ncc1CC2`?
HIV TAR-Tat: -0.72; CDC25B CDK2 inh: -0.11

Results for O=c1nc(SCc2ccc(F)cc2)c2c(n1C1CCCC1)CCC2 ?
HIV TAR-Tat: 1.1; CDC25B CDK2 inh: 1.4

What do the screens show for `CCSc1sc(CC)cc1CN1C(=O)c2ccccc2C1=O`?
CDC25B CDK2 inh: -0.74

How did CC(C)CCNC(=O)c1cc2n(n1)CC(C)(C(=O)NC1CCCC1)N(C)C2=O (stereo not drawn) do in these assays?
HIV TAR-Tat: -0.25

What do the screens show for `CCc1ccc(Oc2coc3cc(OC(=O)C(C)C)ccc3c2=O)cc1`?
HIV TAR-Tat: -0.17; CDC25B CDK2 inh: -2

How did Cc1noc(/C=C/c2ccc(S(=O)(=O)N3CCOCC3)s2)c1[N+](=O)[O-] do in these assays?
HIV TAR-Tat: -0.59

What do the screens show for `COc1cccc(-c2nn3cnnc3s2)c1`?
HIV TAR-Tat: -2.2; CDC25B CDK2 inh: -1.8

What do the screens show for `Cc1ccc(-c2nnc3ccc(SCC(=O)NC4CCCC4)nn23)cc1`?
CDC25B CDK2 inh: -0.44

Results for CN(C)CCCN1C(=O)C(=O)/C(=C(/O)c2ccccc2)C1c1ccncc1 (stereo not drawn) ?
HIV TAR-Tat: 0.88; CDC25B CDK2 inh: -0.27

Results for O=S(=O)(NCCSc1ccccn1)c1ccc(Cl)cc1 ?
HIV TAR-Tat: 2.2; CDC25B CDK2 inh: 0.9

What do the screens show for `COC(=O)c1cscc1OC(=O)c1ccc(C(F)(F)F)cc1`?
CDC25B CDK2 inh: 17*

What do the screens show for `Nc1ccc2nc(-c3ccccc3Br)sc2c1`?
HIV TAR-Tat: -1.3; CDC25B CDK2 inh: 1.1

What do the screens show for `CCCc1cc(=O)n2[nH]c(NCc3cc(F)cc(F)c3)nc2n1`?
HIV TAR-Tat: 1.1; CDC25B CDK2 inh: 0.07

Results for CC(O)CNCCNCc1ccc(-c2ccc(Br)cc2)o1 (stereo not drawn) ?
HIV TAR-Tat: -0.41

Results for COc1cccc(N2CCN(c3ccc(Cl)nn3)CC2)c1 ?
HIV TAR-Tat: 2; CDC25B CDK2 inh: -2

What do the screens show for `CCOc1ccc(/C=C/c2nc(-c3cccc(C)c3)no2)cc1OCC`?
HIV TAR-Tat: 2.2; CDC25B CDK2 inh: 1.5

What do the screens show for `CCCCC(=O)Nc1cc(F)c2nc(N3CCOCC3)ccc2c1`?
HIV TAR-Tat: 1

What do the screens show for `Cc1cc(C(=O)Nc2ccc3c(c2)OCO3)on1`?
HIV TAR-Tat: -0.24; CDC25B CDK2 inh: 0.27

What do the screens show for `Cc1cc(Nc2ccc(F)cc2F)n2nc(-c3ccco3)nc2n1`?
HIV TAR-Tat: 1.1

How did Cn1c(Cn2c(=O)sc3ccccc32)nnc1SCC(=O)Nc1ccccc1C(F)(F)F do in these assays?
CDC25B CDK2 inh: -1.9

What do the screens show for `OC(c1ccccc1)c1n[nH]c(=S)n1-c1ccccc1` (stereo not drawn)?
CDC25B CDK2 inh: -0.77

What do the screens show for `COc1ccc2c(c1)c1c(c(=O)n(-c3ccc(OC)c(OC)c3)c(=O)n1CC(=O)N1CCCC1)n2C`?
HIV TAR-Tat: 1.6

How did CCn1c(C(=O)N2CCCC(C(=O)NC3CCCC(C)C3C)C2)cc2sccc21 (stereo not drawn) do in these assays?
HIV TAR-Tat: -1.1; CDC25B CDK2 inh: -1.5

Results for COc1cc(S(=O)(=O)N2CCN(c3cc(N(C)C)nc(C)n3)CC2)c(C)cc1C ?
HIV TAR-Tat: 0.19; CDC25B CDK2 inh: -0.43

What do the screens show for `O=C1CC(c2ccc3ccccc3c2)c2ccc3ccccc3c2N1` (stereo not drawn)?
HIV TAR-Tat: 3.5; CDC25B CDK2 inh: -0.45

What do the screens show for `O=C(O)c1cc(-c2ccc(F)cc2)nc2n[nH]c(-c3ccc(Cl)cc3)c12`?
HIV TAR-Tat: 3.2

What do the screens show for `Cn1cc(Br)c(/C=N/Nc2ccccn2)n1`?
CDC25B CDK2 inh: -0.56

What do the screens show for `CCN(CC)CCN1C(=O)c2ccc(-c3ccco3)n2CC1(C)C(=O)NC1CCCCC1` (stereo not drawn)?
HIV TAR-Tat: -0.09

What do the screens show for `CCCCCCSc1nnc2nc(C)cc(C)n12`?
HIV TAR-Tat: -0.62; CDC25B CDK2 inh: -0.3

How did CC1CN(C(=O)CCC(=O)N2CCOCC2)c2cc(Cl)ccc2O1 (stereo not drawn) do in these assays?
HIV TAR-Tat: 0.34; CDC25B CDK2 inh: -1.7

How did CCOC(=O)c1sc(=S)n(-c2cc(C)ccc2C)c1N do in these assays?
HIV TAR-Tat: 0.27; CDC25B CDK2 inh: 0.54

Results for O=c1cc(CSc2ncn[nH]2)nc2sccn12 ?
HIV TAR-Tat: 0.4

What do the screens show for `COCCN1C(=O)C(=O)/C(=C(\O)c2ccc(C)c(F)c2)C12C(=O)N(C)c1ccccc12` (stereo not drawn)?
HIV TAR-Tat: 0.78; CDC25B CDK2 inh: -1.4

How did CCOC(=O)CSc1nc2ccc(NC(=O)c3cccs3)cc2s1 do in these assays?
HIV TAR-Tat: 1; CDC25B CDK2 inh: -1.9

How did COc1ccccc1-c1nnc(C2CCNCC2)o1 do in these assays?
HIV TAR-Tat: 2.4; CDC25B CDK2 inh: -1.2

Results for COc1cc2c(cc1OC)C(c1ccco1)CC(=O)N2 (stereo not drawn) ?
HIV TAR-Tat: -0.56; CDC25B CDK2 inh: -0.83

Results for COc1cc(NC(=O)Cn2nc3c(cc2=O)CCC3)cc(OC)c1 ?
HIV TAR-Tat: 0.46; CDC25B CDK2 inh: -1

What do the screens show for `Cc1ccc(CCNC(=O)C2CCCN(C(=O)c3cc4sccc4n3C)C2)cc1` (stereo not drawn)?
CDC25B CDK2 inh: -0.09

What do the screens show for `O=C(c1sc2ncccc2c1-n1cccc1)N1CCN(c2ccccn2)CC1`?
HIV TAR-Tat: -0.29

What do the screens show for `Cc1ccc(N2C(=O)CC(Sc3nccc(C)n3)C2=O)cc1` (stereo not drawn)?
HIV TAR-Tat: -0.58; CDC25B CDK2 inh: -1.5

How did Nc1nc(N)nc(Cc2ccccc2)n1 do in these assays?
HIV TAR-Tat: 0.88; CDC25B CDK2 inh: -1.8

Results for COC(=O)c1sc2ccccc2c1S(=O)(=O)Nc1ccc(F)cc1 ?
HIV TAR-Tat: 0.03

Results for COC(=O)c1ccc(C2C3=C(CC(C)(C)CC3=O)NC3=C2C(=O)CC(C)(C)C3)cc1 ?
HIV TAR-Tat: -0.44; CDC25B CDK2 inh: -1.2

How did O=C(Nc1ccc(Cl)c(-c2nc3cc(Cl)ccc3o2)c1)c1ccc([N+](=O)[O-])o1 do in these assays?
HIV TAR-Tat: -0.05; CDC25B CDK2 inh: -0.52

What do the screens show for `Cc1ccc(Cn2c(CO)cnc2SCc2cccc(F)c2)cc1`?
HIV TAR-Tat: 0.9

How did Cn1c(C(=O)NC2CCCC2)cc2c(=O)n(C)c3ccccc3c21 do in these assays?
HIV TAR-Tat: -1.9; CDC25B CDK2 inh: -0.57

What do the screens show for `O=C1C2CC(CC1(Br)Br)C(=O)C(Br)(Br)C2`?
CDC25B CDK2 inh: 0.75

How did Cc1ccc(-c2nc3cnccn3c2Nc2ccc(Cl)cc2)cc1 do in these assays?
HIV TAR-Tat: -2.1; CDC25B CDK2 inh: 0.26

Results for Cc1ccc(S(=O)(=O)NC(C)c2nc(-c3ccc(S(=O)(=O)N4CCCCC4)cc3)no2)cc1 (stereo not drawn) ?
HIV TAR-Tat: 1.4

How did O=C(CCCc1c[nH]c2ccccc12)N1CCN(c2cccc(Cl)c2)CC1 do in these assays?
HIV TAR-Tat: 1.3

How did Cc1noc(C)c1S(=O)(=O)N1CCC(C(=O)NCC2COc3ccccc3O2)CC1 (stereo not drawn) do in these assays?
CDC25B CDK2 inh: -2

Of the compounds above, these have an aryl methoxy group:
What do the screens show for `COc1ccc(Nc2ncnc3c2nc2n3CCCC2)cc1Cl`?
HIV TAR-Tat: 1.8

What do the screens show for `COc1cccc(-c2nn3cnnc3s2)c1`?
HIV TAR-Tat: -2.2; CDC25B CDK2 inh: -1.8

Results for COc1cccc(N2CCN(c3ccc(Cl)nn3)CC2)c1 ?
HIV TAR-Tat: 2; CDC25B CDK2 inh: -2

What do the screens show for `COc1ccc2c(c1)c1c(c(=O)n(-c3ccc(OC)c(OC)c3)c(=O)n1CC(=O)N1CCCC1)n2C`?
HIV TAR-Tat: 1.6

Results for COc1cc(S(=O)(=O)N2CCN(c3cc(N(C)C)nc(C)n3)CC2)c(C)cc1C ?
HIV TAR-Tat: 0.19; CDC25B CDK2 inh: -0.43

How did COc1ccccc1-c1nnc(C2CCNCC2)o1 do in these assays?
HIV TAR-Tat: 2.4; CDC25B CDK2 inh: -1.2

Results for COc1cc2c(cc1OC)C(c1ccco1)CC(=O)N2 (stereo not drawn) ?
HIV TAR-Tat: -0.56; CDC25B CDK2 inh: -0.83

Results for COc1cc(NC(=O)Cn2nc3c(cc2=O)CCC3)cc(OC)c1 ?
HIV TAR-Tat: 0.46; CDC25B CDK2 inh: -1

(listing goes on)
How did CCOc1ccccc1NC(=O)N1CC(C)Sc2ccccc21 (stereo not drawn) do in these assays?
HIV TAR-Tat: 1.4

How did N#Cc1c(NC(=O)Cc2csc(-c3ccccc3)n2)sc2c1CCCC2 do in these assays?
HIV TAR-Tat: -0.39; CDC25B CDK2 inh: -2.1

Results for CS(=O)(=O)N1CCN(c2ccc(Nc3nc4ccccc4nc3N3CCOCC3)cc2)CC1 ?
HIV TAR-Tat: 1.4; CDC25B CDK2 inh: -2.4

What do the screens show for `CN(C)c1ccc(N2CCC(C(=O)N3CCN(C(=O)c4ccco4)CC3)CC2)nn1`?
HIV TAR-Tat: 0.62

Results for Cc1oc2ccc(NS(=O)(=O)c3ccc(F)cc3)cc2c1C(=O)O ?
HIV TAR-Tat: 1.7; CDC25B CDK2 inh: 0.13

What do the screens show for `O=C(NNC1OC[C@H](O)[C@H](O)[C@H]1O)c1cccnc1` (stereo partly drawn)?
CDC25B CDK2 inh: -0.98

Results for O=C1C2C3CCC(C3)C2C(=O)N1Cc1ccc2c(c1)OCO2 (stereo not drawn) ?
CDC25B CDK2 inh: -2.9

How did N/C(CSc1ncccc1C(F)(F)F)=N\O do in these assays?
CDC25B CDK2 inh: -0.64

What do the screens show for `COCCCNC(=O)Cn1ncc2c1-c1ccccc1OC2`?
HIV TAR-Tat: 0.36; CDC25B CDK2 inh: -0.27

Results for Cc1ccc(-c2noc(-c3ccc(Br)cc3)n2)s1 ?
HIV TAR-Tat: 1.6

What do the screens show for `CC1(C)Cc2nc3oc4c(SCC(=O)c5ccc(Cl)cc5)ncnc4c3cc2CO1`?
HIV TAR-Tat: 0.08

What do the screens show for `CC(C)Cc1nn2c(=O)cc(COC(=O)c3ccccc3Cl)nc2s1`?
HIV TAR-Tat: -0.74

The last 2 compounds of the part above open the next one.
What do the screens show for `CC1(C)Cc2nc3oc4c(SCC(=O)c5ccc(Cl)cc5)ncnc4c3cc2CO1`?
HIV TAR-Tat: 0.08

What do the screens show for `CC(C)Cc1nn2c(=O)cc(COC(=O)c3ccccc3Cl)nc2s1`?
HIV TAR-Tat: -0.74

Results for Cc1cc(C)c([N+](=O)[O-])c(N)n1 ?
CDC25B CDK2 inh: -0.89

What do the screens show for `O=C(O)c1cccc(NC(=O)c2cc(S(=O)(=O)N(CCO)CCO)ccc2Cl)c1`?
CDC25B CDK2 inh: -3

Results for COc1ccc(S(=O)(=O)N2CN3CCN(C3)C2)cc1OC ?
HIV TAR-Tat: -1.7; CDC25B CDK2 inh: -0.29

How did c1ccc2c(c1)Oc1ccccc1S2 do in these assays?
CDC25B CDK2 inh: -0.69

How did CC(=O)O[C@@H]1CC[C@@]2(C)C(CC[C@]3(C)C2CC=C2C4CC(C)(C)CC[C@]4(C(=O)O)CC[C@]23C)C1(C)C (stereo partly drawn) do in these assays?
HIV TAR-Tat: 0.48

How did COc1ccc(OC)c(NC(=O)Nc2cn(C)c(=O)c3ccccc23)c1 do in these assays?
HIV TAR-Tat: -0.09

Results for CCSc1nc2c(c(=O)[nH]1)C1(CCCC1)Cc1ccccc1-2 ?
HIV TAR-Tat: 0.51; CDC25B CDK2 inh: -0.87

Results for Cc1nn(-c2ccc(F)cc2)c(-n2cccc2)c1C(=O)NCC1CCCO1 (stereo not drawn) ?
HIV TAR-Tat: 1

What do the screens show for `COCCNc1cc(C)nc2c(-c3ccc(F)cc3)c(C(F)(F)F)nn12`?
HIV TAR-Tat: 0.6; CDC25B CDK2 inh: 0.45

How did CC1CCC(NC(=O)C(NS(=O)(=O)c2ccc3c(c2)CCCC(=O)N3)C(C)C)CC1 (stereo not drawn) do in these assays?
HIV TAR-Tat: 0.23

How did CN(CCc1noc(-c2ccccc2Cl)n1)S(=O)(=O)c1cccc2nsnc12 do in these assays?
HIV TAR-Tat: 1.7
